D2 PAM: human D2 receptor positive allosteric modulation | P14416 | DiscoveRx D2 beta-arrestin cells, luminescence, 90 min; 100% = 57 uM dopamine signal | potentiation, % (concentration not given with the values) | 360,000 compounds, 0.23% hits | AID 624464; active = potentiation of 50% or more; inconclusive = 30% to 50%; inactive = 30% or less;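 further: tested on top of an EC20 dose of dopamine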
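PathHunter D2 cells, attached overnight at 37 deg C, received compound in DMSO plus dopamine at EC20 (50 nM final) for 90 min at 37 deg C. Beta-arrestin recruitment was read as luminescence after 1 h with detection reagent at ambient temperature.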
gsp ag: agonists of gsp mutant (McCune-Albright syndrome). gsp mutant cells, cAMP HTRF, 30 min; control for the full effect not named in the record. Potency, µM (series often up to 76.9 µM), for the others: at the highest dose activation (cAMP increase), actives largely listed as activators. 340,000 compounds, 0.13% hits. AID 624287; active = well fitted activation curve with a large enough effect; inconclusive = small, poorly fitted or top-dose-only effect, or another doubt; inactive = no such curve, though single readings can be large or run the other way; cell line not stated here;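 further: phosphodiesterase inhibitor Ro 20-1724 added with compounds to block cAMP breakdown; potency means the concentration at half of the fitted maximal effect; nearly all actives have a fitted effect of over 60% in size; about a fifth of the inactives were tested at one dose only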
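Cells in DMEM/10% FBS with G418 were pretreated with compounds in DMSO plus […] (300 uM stock) for 30 min at 37C. cAMP was measured by HTRF (cAMP-d2 plus anti-cAMP antibody-K) after 30 min at room temperature.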
Six1-Eya2 inh: blocks human Six1 binding to Eya2; Q15475+O00167; AlphaScreen GST-Six1/His-Eya2 binding, biochemical; hits give low values; control for the full effect not named in the record; activity change, % (test concentration not listed); 360,000 compounds, 0.56% hits; AID 651725; in the data active = activity change below about -65%; inconclusive = about -30% to -65%; inactive = above about -30%; further: on the % scale 0 is the no-effect control and ±100 the full control effect
Target sequence (O00167 whole entry, looked up): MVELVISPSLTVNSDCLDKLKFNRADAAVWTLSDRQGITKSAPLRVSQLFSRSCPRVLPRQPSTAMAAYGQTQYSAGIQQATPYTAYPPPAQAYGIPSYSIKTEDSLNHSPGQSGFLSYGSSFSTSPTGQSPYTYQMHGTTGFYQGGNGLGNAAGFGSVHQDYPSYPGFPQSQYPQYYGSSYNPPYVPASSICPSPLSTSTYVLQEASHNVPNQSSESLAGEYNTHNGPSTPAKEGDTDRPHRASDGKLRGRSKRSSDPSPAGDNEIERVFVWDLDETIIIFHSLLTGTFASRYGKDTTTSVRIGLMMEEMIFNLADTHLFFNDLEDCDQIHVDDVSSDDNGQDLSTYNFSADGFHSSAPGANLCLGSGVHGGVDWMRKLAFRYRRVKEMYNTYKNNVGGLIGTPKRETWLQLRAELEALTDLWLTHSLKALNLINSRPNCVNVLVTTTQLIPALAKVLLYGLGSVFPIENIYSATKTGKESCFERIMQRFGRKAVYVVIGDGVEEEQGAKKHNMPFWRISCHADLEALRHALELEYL
Target sequence (Q15475 whole entry, looked up): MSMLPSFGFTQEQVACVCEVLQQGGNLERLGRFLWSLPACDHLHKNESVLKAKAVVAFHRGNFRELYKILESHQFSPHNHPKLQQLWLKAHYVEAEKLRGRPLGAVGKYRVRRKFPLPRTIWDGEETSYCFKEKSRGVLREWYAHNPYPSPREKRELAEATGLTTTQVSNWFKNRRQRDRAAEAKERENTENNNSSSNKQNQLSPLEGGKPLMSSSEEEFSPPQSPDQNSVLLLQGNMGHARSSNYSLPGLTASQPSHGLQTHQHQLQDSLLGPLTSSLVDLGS
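Homogeneous AlphaScreen proximity assay pairing GST-Six1 with His-tagged Eya2 (added as 5X mix: 250 nM and 500 nM) in 50 mM Tris pH 8.0, 300 mM NaCl, 1 mM TCEP. Glutathione donor and nickel acceptor beads; 1 h, 37 °C, dark.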
gsp antag: gsp mutant antagonism | gsp-mutant cells, cAMP HTRF, 30 min; control for the full effect not named in the record | Potency, µM (series often up to 76.9 µM), for the others: top-dose activity change, negative = inhibition, actives largely listed as inhibitors | AID 624288 | 340,000 compounds, 0.4% hits; active = falling curve of any shape with a large fitted effect; inconclusive = falling curve, mostly with a smaller effect; inactive = flat or rising curve; cell line not stated here;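 further: intracellular cAMP measured with PDE inhibitor Ro 20-1724 present during compound exposure; potency means the concentration at half of the fitted maximal effect; on the % scale 0 is the no-effect control and ±100 the full control effect; nearly all actives have a fitted effect of over 65% in size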
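HTRF cAMP measurement after 30 min RT detection following 30 min, 37C compound treatment alongside […] (added as 300 uM solution) in G418-selected cells seeded at 2000/well and grown 16–24 h.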
CtBP-E1A blk: blocks the CtBP interaction with E1A; AlphaScreen GST-E1A/His-CtBP binding, 1536-well; hits give low values; control for the full effect not named in the record; activity change, % (no concentration beside the values); 340,000 compounds, 0.49% hits; AID 651724; in the data active means activity change below about -65%; inconclusive means about -30% to -65%; inactive means above about -30%; further: on the % scale 0 is the no-effect control and ±100 the full control effect
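Homogeneous bead-based format: GST-tagged E1A captured on glutathione donor beads, His-tagged CtBP on nickel acceptor beads; compounds precede bead addition by 2 h at 37 °C.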
D2 ag: agonists of human D2 dopamine receptor (beta-arrestin); P14416; DiscoveRx PathHunter D2 beta-arrestin, luminescence, 90 min; 100% = 57 uM dopamine signal; activation, % (no concentration beside the values); 360,000 compounds, 0.084% hits; AID 624465; in the data active = activation above about 40%; inconclusive = about 15% to 40%; inactive = below about 15%; further: compound concentration not given in the record; the text of the record calls up to 30% inactive
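DiscoveRx PathHunter D2 beta-arrestin cells (2,100/well) attached overnight, then compound-stimulated 90 min at 37 C in HBSS/10 mM HEPES/0.1% Tween-20 buffer; beta-galactosidase complementation read by luminescence after 1 h at ambient temperature. Dopamine 57 uM final (EC100) as control.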
An asterisk follows results filed as active; ? = inconclusive; nt = no result given; [ ] = remark or other dose.

molecule,D2 PAM,gsp ag,Six1-Eya2 inh,gsp antag,CtBP-E1A blk,D2 ag
CCOC(=O)c1c(NC(=O)CN2CCN(S(=O)(=O)c3cc(Cl)ccc3Cl)CC2)sc(C(=O)N(C)C)c1C,0,9%,-12,?,-12,5.4
CN(C)c1ccc(S(=O)(=O)N2CCCCC2)cc1NC(=O)C1=COCCO1,-13,0%,-5,2%,-6,-11
c1ccc(-n2c(-c3ccco3)nnc2N2CCOCC2)cc1,3,-32%[inhibitor],1,-8%,7,-0.2
CCOC(=O)CSc1nc(=O)n2cccc(C)c2n1,-5,10%[15.4 µM],-8,10%,nt,7.6
CC1(C)C(CC2OCC(CN3CCCCC3)O2)[C@H]2CC[C@@H]1C2 (stereo partly drawn),-23,-16%,-1,11%,nt,-4.1
CN(C1(C)CCS(=O)(=O)C1)S(=O)(=O)c1ccc(F)cc1 (stereo not drawn),-7,6%,-11,9%,1,1.9
Cc1cc(C)c2nc(C(F)(F)F)nc(N3CCN(C(=O)c4ccco4)CC3)c2c1,-12,17%,-4,-13%,2,-4.2
COc1ccc(C(=O)NCCCN2CCOCC2)cc1Br,-4,-7%,5,10%,-19,-3.8
Cc1ccc(S(=O)(=O)N(CC(=O)N2CCOCC2)C2CCCCC2)cc1,-2,25%,0,7%,7,-1.9
O=C(N/N=C/c1cccc(F)c1)c1ccc(Cl)cc1,-15,1%[15.4 µM],1,0%,4,-1.5
O=C(CCN1C(=O)C2CCCCC2C1=O)Nc1cc(F)ccc1F (stereo not drawn),-3,-7%[15.4 µM],9,5%,0,-4.3
Clc1ccc(N2CCN(Cc3c[nH]c4ncccc34)CC2)cc1,nt,nt,2,4%,7,nt
CC(C)C(NC(=O)c1ccccc1F)C(=O)NCc1ccc(F)cc1 (stereo not drawn),-4,0%,0,4%,6,6.2
Clc1cccc(CN2CCCCCCC2)c1Cl,-25,-46%[inhibitor],2,2%,-13,-4.5
CCOc1ccc(CCN2C(=S)N([C@@H](Cc3ccc(O)cc3)CN3CCC[C@@H]3CN3C(=S)NC[C@@H]3CC(C)C)C[C@@H]2CC(C)C)cc1,-9,nt,-1,nt,?,-5.3
Cc1ccc(C)c(OC2=NS(=O)(=O)c3ccccc32)c1,-2,-5%,7,3%,3,1.1
O=C(C1CC(=O)N(C2CCCC2)C1)N1CCN(c2ccc(F)cc2)CC1 (stereo not drawn),-12,-23%,6,5%,-3,-7.1
CCOC(=O)[C@@H](C)NS(=O)(=O)N(Cc1ccccc1)[C@H](C(=O)OC)C(C)C,-3,?,-1,12%,5,-1.7
Cc1ccc(-c2nnn(CC(=O)N(c3ccccc3F)C(C(=O)NC3CCCC3)c3ccncc3)n2)o1 (stereo not drawn),-3,-22%,3,-23%,7,1.7
Cc1ccc(-c2nc3ccccc3o2)cc1NC(=S)NC(=O)/C=C/c1ccco1,-14,-20%,-3,-4%,-1,-2.6
Cc1cc(NC(=O)CSc2nc3c(cc2C#N)CCCC3)no1,-2,13%[15.4 µM],-5,17%,-7,-6.0
COc1ccc(C(CNC(=O)COc2cc(C)ccc2Cl)N2CCCCC2)cc1 (stereo not drawn),-9,-19%[15.4 µM],-5,5%,9,-7.3
COc1ccccc1OCc1ccc(C(=O)c2ccccc2)cc1,3,-11%,19,-9%,29,2.8
Fc1ccc(NC(=S)N2CCc3ccccc3C2)c(F)c1,-9,21%,4,-6%,9,2.2
CN(CC(=O)N1CCN(c2cccc(Cl)c2)CC1)S(=O)(=O)c1cccs1,-5,21%,1,?,-5,-1.1
Cc1ccc(C)c(NC(=O)CCc2nnc3ccc(N4CCCC4)nn23)c1,-9,26%,3,-5%,nt,-0.9
Cc1cc(NC(=O)C(C)SCC(=O)Nc2ccc(Br)cc2Br)no1 (stereo not drawn),-3,-28%,1,-11%,-8,-2.0
O=S(=O)(NC1CCCCC1Nc1ccc(Cl)cc1)c1ccccc1 (stereo not drawn),-11,-7%,-9,6%,-19,1.8
COCc1[nH]nc2c1C1(CCC3(CC1)OCCO3)C(C#N)=C(N)O2,-5,3%,0,3%,3,-1.1
CSc1nc(-c2ccc(Cl)cc2)nn1S(=O)(=O)c1ccc(Cl)cc1,-18,-18%,4,4%,5,-3.7
Cc1ccc(NC(=O)COC(=O)CCc2nc3ccccc3c(=O)[nH]2)cc1Cl,-5,-6%[15.4 µM],5,13%,-6,-6.8
COc1ccccc1NS(=O)(=O)c1cccc(NC(=O)c2ccc3ccccc3n2)c1,-16,-2%,-10,-12%,11,1.7
CCN(CC)S(=O)(=O)c1cc(NC(=O)Cn2ncc(Cl)c(Cl)c2=O)ccc1C,19,8%,-8,-24%,17,-6.9
CCN(CC)C(=O)CC(c1ccc(OC)cc1)c1c(O)cc(OC)cc1OC (stereo not drawn),-2,nt,-2,-6%,-3,-3.0
c1csc(CN2CCOCC2)c1,-4,-3%,-4,8%,-2,-1.5
O=C(Nc1ncc2c(n1)-c1ccccc1OC2)c1ccc(Cl)cc1,-4,18%,-2,-4%,1,-1.8
O=C1CN(C(=O)CN2C(=O)NC(c3ccccc3)(c3ccccc3)C2=O)c2ccccc2N1,-4,5%,-2,3%,4,-1.9
CSc1ccc(CNC(=O)c2c(C)noc2C)s1,-4,-6%[15.4 µM],6,0%,-1,-6.8
O=C1C=C(O)CC(c2ccc(Cl)cc2)C1 (stereo not drawn),-21,-6%,-1,-7%,0,-0.5
Cc1ccccc1CNc1ncnc2cc(Cl)ccc12,-7,25%[15.4 µM],2,10%,0,-0.6
O=C(c1ccccc1)C1CCN(C(=O)c2ccco2)CC1,-3,10%,-3,5%,-6,-2.8
COc1cccc(-n2c(Cc3cc(=O)[nH]c(=O)[nH]3)nnc2SCC(=O)N2CCC(C)CC2)c1,18,7%[15.4 µM],6,5%,3,-2.6
COc1ccc(NS(=O)(=O)c2ccc3c(c2)[C@H]2C=CC[C@H]2[C@@H](c2ccc(C(=O)O)cc2)N3)cc1,3,-7%,?,-12%,-10,1.8
O=C(O)CCc1nnc2n(Cc3ccc(F)cc3)c(=O)c3ccccc3n12,-4,-3%,4,-6%,-2,-10
COc1cccc(/C=C/C(=O)c2ccc3c(c2)OCCO3)c1OC,3,-13%,9,-5%,-17,1.5
Cc1oc2c(c1C(=O)NC(Cc1c[nH]c3ccccc13)C(=O)O)CCCC2 (stereo not drawn),8,-14%,0,8%,1,-0.1
Cc1cccc(C(=O)N[C@H](C(=O)Nc2ccc(S(=O)(=O)NC3=NCCCCC3)cc2)C(C)C)c1,-11,17%[15.4 µM],2,-24%,2,-8.7
Cc1cc2occ(CC(=O)NNC(=O)c3ccccc3F)c2cc1C,-10,22%,-4,9%,5,0.9
COc1cc(CNCc2ccccn2)ccc1OCc1ccc(Cl)cc1Cl,-17,14%,-25,4%,-28,-5.6
COc1ccc(OCc2nnc(SCC(=O)NC3CC3)n2C)cc1,-10,-4%,19,14%,-3,-1.1
CCC(=O)N1CCc2cc(Br)cc(S(=O)(=O)NCc3ccco3)c21,-30,-2%,-10,-4%,-13,-4.6
O=C(NC(=S)Nc1ccccc1C(=O)O)c1ccc(-c2ccc(Br)cc2)o1,10,14µM*,-24,-5%,?,-1.0
CCOc1ccccc1N1CCN(S(=O)(=O)c2ccc(F)c(F)c2)CC1,10,18%,11,-18%,4,-0.1
O=C(Nc1ccc(NC(=O)C2CC2)nc1)c1cccc(F)c1,-20,1%,-1,7%,-4,-4.2
Cc1cccc(NC(=O)CN(C)C(=O)/C=C/c2ccccc2)c1C,-28,-1%[15.4 µM],13,-1%,-22,-3.2
Cc1cccc(NCc2ccccc2)c1,-1,?,-2,-5%,12,11
COc1cccc(C=NCC(C)N=Cc2cccc(OC)c2O)c1O (stereo not drawn),-44,-33%[inhibitor],?,-17%,-27,-11
Cc1csc(NC(=O)C2CC(=O)N(Cc3ccco3)C2)n1 (stereo not drawn),-16,7%[15.4 µM],-12,11%,-2,-1.5
NS(=O)(=O)c1cccc(NC(=O)CCCC2CCCCC2)c1,-4,0%,-1,-8%,12,-1.0
CO/N=C/NC(=O)Cc1cn(-c2ncc(C(F)(F)F)cc2Cl)c2ccccc12,-2,-8%,8,-2%,6,2.6

Ordered by value in Six1-Eya2 inh (highest first): 3 of the compounds above
| canonical_smiles | Six1-Eya2 inh |
| --- | --- |
| CCOc1ccccc1N1CCN(S(=O)(=O)c2ccc(F)c(F)c2)CC1 | 11 |
| Cc1cc2occ(CC(=O)NNC(=O)c3ccccc3F)c2cc1C | -4 |
| COc1cc(CNCc2ccccn2)ccc1OCc1ccc(Cl)cc1Cl | -25 |

New compounds follow
molecule,D2 PAM,gsp ag,Six1-Eya2 inh,gsp antag,CtBP-E1A blk,D2 ag
CC1CCCCC1NC(=O)C(C)N1C(=O)c2ccccc2C1=O (stereo not drawn),0,-10%,4,8%,15,0.4
O=C(CSc1nnc(CNC(=O)c2cccs2)o1)Nc1cccc(C(F)(F)F)c1,2,4%,2,?,4,-3.0
CCNC(=S)N(CCc1c(C)[nH]c2ccc(C)cc12)Cc1ccco1,1,-6%,-10,?,-3,-6.9
NS(=O)(=O)c1ccc(CCNC(=O)c2ccc(Cl)cc2[N+](=O)[O-])cc1,-3,-30%,-2,14%,5,-0.5
CCOC(=O)[C@H]1[C@H]2COc3ccc(OC)cc3[C@@H]2N2C(=O)c3ccc(C)cc3NC(=O)[C@@]12C,-53,nt,-3,-14%,0,-1.8
O=P(COc1ccccc1)(c1ccccc1)c1ccccc1,-2,-47%[inhibitor],3,1%,-3,-1.2
Cc1ccccc1C#CC1=CC(=O)CC(C)(C)C1,-2,?,3,nt,6,-2.3
COc1ccc2cc1Oc1ccc(cc1)C[C@H]1c3cc(c(OC)cc3CCN1C)Oc1c(OC)c(OC)cc3c1[C@@H](C2)N(C)CC3,-24,30%,-23,-6%,-26,-3.0
CCOC(=O)C1=CN(Cc2cccc(F)c2)S(=O)(=O)NC1CCc1ccccc1 (stereo not drawn),nt,nt,-6,-8%,12,1.8
O=S(=O)(c1ccccc1)N1CCN(CC(O)COc2ccc3c(c2)CCC3)CC1 (stereo not drawn),-12,-31%[inhibitor],-2,?,-8,0.4
Cn1cnc(S(=O)(=O)N2CCN(c3ccc(Cl)cc3)CC2)c1,-3,-8%,-2,10%,0,-3.3
O=C(CSc1nc(Nc2ccccc2)nc(N2CCOCC2)n1)Nc1ccc2c(c1)OCCO2,-9,0%,-2,9%,-6,0.7
CCCC(=O)Oc1ccc2c(C)cc(=O)oc2c1,-23,24%,?,11%,1,-3.3
O=C(OCC(=O)N1CCN(C(=O)c2ccco2)CC1)c1cc(S(=O)(=O)Nc2ccc(Cl)cc2)ccc1O,16,-9%[15.4 µM],-7,-24%,8,3.0

Assay outcomes deposited in PubChem by National Center for Advancing Translational Sciences (NCATS).

Outcome played no part in choosing rows; any-hit rate near 1.4%.
